Sfp PPTase inh: Sfp phosphopantetheinyl transferase inhibition | Q9F4F7 | Biochemical Sfp PPTase activity, qHTS | Potency, µM, for inactives: max response, negative = inhibition, hits mostly inhibitors | actives 3.5% (n = 310,000); active means well fitted inhibition curve with a large enough effect; inconclusive means small, poorly fitted or top-dose-only effect, or another doubt; inactive means no such curve, though single readings can be large or run the other way;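 further: the enzyme is Sfp with the accession as filed and its product quenches rhodamine fluorescence; potency means the concentration at half of the fitted maximal effect; 0% = enzyme reaction without inhibitor and -100% = no enzyme wells; top concentration of the series not given in the record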
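With Hepes-Na pH 7.6 buffer containing 10 mM MgCl2, Sfp (15 nM) modified BHQ-2-YbbR (12.5 uM) using rhodamine-CoA (5 uM). Two reads 30 minutes apart at 525/598 nm yielded each well's rate.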
D2 potentiator: potentiates the human D2 dopamine receptor allosterically; potentiation, % (no concentration beside the values); AID 624464; DiscoveRx D2 beta-arrestin cells, luminescence, 90 min; 100% = 57 uM dopamine signal; P14416; actives 0.23% (n = 360,000); active = potentiation of 50% or more; inconclusive = 30% to 50%; inactive = 30% or less;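 further: compound concentration not given in the record; tested on top of an EC20 dose of dopamine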
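PathHunter D2 cells, attached overnight at 37 deg C, received compound in DMSO plus dopamine at EC20 (50 nM final) for 90 min at 37 deg C. Beta-arrestin recruitment was read as luminescence after 1 h with detection reagent at ambient temperature.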
CtBP-E1A inh: inhibitors of CtBP/E1A interaction; actives 0.49% (n = 340,000); activity change, % (test concentration not listed); AlphaScreen GST-E1A/His-CtBP binding, 1536-well; active compounds read low; control for the full effect not named in the record; AID 651724; in the data active means activity change below about -65%; inconclusive means about -30% to -65%; inactive means above about -30%; further: on the % scale 0 is the no-effect control and ±100 the full control effect
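Steps: dispense buffer (Tris pH 8.0, NaCl 300 mM, TCEP 1 mM, BSA, Tween 20); add 5X protein mix (GST-E1A, His-CtBP, 125 nM each); pin 23 nL compound; 2 h at 37 °C, dark; add 5X beads (50 ug/mL); 1 h; read.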
D2 ag: activates the human D2 dopamine receptor; DiscoveRx PathHunter D2 beta-arrestin, luminescence, 90 min; 100% = 57 uM dopamine signal; P14416; actives 0.084% (n = 360,000); activation, % (concentration not given with the values); in the data active = activation above about 40%; inconclusive = about 15% to 40%; inactive = below about 15%; further: compound concentration not given in the record; the text of the record calls up to 30% inactive
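DiscoveRx PathHunter D2 beta-arrestin cells (2,100/well) attached overnight, then compound-stimulated 90 min at 37 C in HBSS/10 mM HEPES/0.1% Tween-20 buffer; beta-galactosidase complementation read by luminescence after 1 h at ambient temperature. Dopamine 57 uM final (EC100) as control.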
TRPV1 PAM: potentiators of human vanilloid receptor 1 (TRPV1); actives 0.02% (n = 320,000); TRPV1-expressing cells, Fluo-8 calcium influx, capsaicin EC20 potentiation; host cell line not named in the record; control for the full effect not named in the record; Q8NER1; potentiation, % at 8.33 µM; active means potentiation above 80%; inconclusive means 30% to 80%; inactive means below 30%; further: 0% is about no effect
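Fluo-8 calcium influx in TRPV1-expressing cells, kinetic read (ex 480/em 520 nm). Compound added and read 3 min for agonist activity, followed by capsaicin at EC20 final and 2 min further read for enhancement.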
PINK1 modulator: changes PINK1 expression | PINK1 immunofluorescence, high-content cytometry, 24 h | Potency, µM (doses to about 76.6 µM), for the others: top-dose activation (PINK1 increase), most hits filed as activators | actives 0.2% (n = 410,000) | AID 624263; active = well fitted activation curve with a large enough effect; inconclusive = small, poorly fitted or top-dose-only effect; inactive = flat fitted curve, though single readings scatter; cell line not stated here;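 further: potency means the concentration at half of the fitted maximal effect; % of control where 0% means no effect; nearly all actives have a fitted effect of over 65% in size; a mitochondrial uncoupler was the plate control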
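Cells are seeded, rested 12 hours, then given compound at five concentrations or DMSO for 24 hours. After fixation, blocking and antibody staining, PINK1 amount and mitochondrial localization are scored; CCCP serves as control.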
Six1-Eya2 blk: Six1/Eya2 interaction inhibition; AlphaScreen GST-Six1/His-Eya2 binding, biochemical; active compounds read low; control for the full effect not named in the record; activity change, % (concentration not given with the values); actives 0.56% (n = 360,000); in the data active = activity change below about -65%; inconclusive = about -30% to -65%; inactive = above about -30%; further: on the % scale 0 is the no-effect control and ±100 the full control effect
Target sequence (O00167 whole entry, looked up): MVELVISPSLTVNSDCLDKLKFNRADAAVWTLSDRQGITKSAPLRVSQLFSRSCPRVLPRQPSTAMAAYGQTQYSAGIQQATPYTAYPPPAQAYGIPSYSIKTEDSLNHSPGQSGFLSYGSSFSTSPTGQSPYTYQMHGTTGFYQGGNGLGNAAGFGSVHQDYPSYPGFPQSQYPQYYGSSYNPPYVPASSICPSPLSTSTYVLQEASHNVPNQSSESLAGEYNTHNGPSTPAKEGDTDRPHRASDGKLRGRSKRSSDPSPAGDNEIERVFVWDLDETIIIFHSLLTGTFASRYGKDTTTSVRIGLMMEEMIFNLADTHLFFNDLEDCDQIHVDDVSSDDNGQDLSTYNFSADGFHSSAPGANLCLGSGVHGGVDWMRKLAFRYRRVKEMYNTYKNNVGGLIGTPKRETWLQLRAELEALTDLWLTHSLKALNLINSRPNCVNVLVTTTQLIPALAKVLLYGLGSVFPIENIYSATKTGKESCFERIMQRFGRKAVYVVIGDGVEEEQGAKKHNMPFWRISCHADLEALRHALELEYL
Target sequence (Q15475 whole entry, looked up): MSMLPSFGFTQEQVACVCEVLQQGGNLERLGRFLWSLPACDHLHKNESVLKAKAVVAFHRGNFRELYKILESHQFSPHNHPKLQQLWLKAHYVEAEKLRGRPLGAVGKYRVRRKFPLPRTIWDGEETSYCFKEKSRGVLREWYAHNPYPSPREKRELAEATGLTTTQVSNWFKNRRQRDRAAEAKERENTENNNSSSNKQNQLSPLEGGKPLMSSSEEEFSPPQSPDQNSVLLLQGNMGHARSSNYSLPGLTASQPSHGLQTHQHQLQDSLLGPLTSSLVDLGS
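Six1/Eya2 binding was read as AlphaScreen signal after compounds were pinned into GST-Six1 plus His-tagged Eya2 (5X stock 250/500 nM) in pH 8.0 Tris/NaCl/TCEP buffer, beads added, then incubated 1 h, 37 C, dark.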
* hit, by the source's call; ? = inconclusive; / = not tested or not shown; & = joins results of further samples; [ ] = another dose, or the depositor's remark.

SMILES,TRPV1 PAM,PINK1 modulator,D2 ag,D2 potentiator,Sfp PPTase inh,CtBP-E1A inh,Six1-Eya2 blk
O=C(NCc1cccc(Cl)c1)C1Cc2c(-c3ccccc3)ccnc2O1 (stereo not drawn),/,1.9%,2.7,-7,/,9,-1
CCOc1cc(N2CCOCC2)c(OCC)cc1NC(=O)CN1C(=O)NC2(CCCCC2C)C1=O (stereo not drawn),-15,0.8%,0.7,-17,/,4,2
CCCc1nc2c(c(=O)c3ccccc3n2C)c(=O)n1-c1cc(C)cc(C)c1,0,2.0%,-4.3,-14,-11%,/,-5
O=C1C=C(O)c2c(O)cc(O)c(O)c2C1=O,/,1.2%,-6.4,-17,/,?,?
COc1ccccc1CCNC(=O)C1CCC(=O)N(Cc2ccccc2OC)C1 (stereo not drawn),-4,-0.1%,-1.4,-7,12%,6,8
O=C(NC1CCCC1)C1CCCN1C(=O)Oc1ccccc1 (stereo not drawn),10,-0.1%,5.8,-9,18%,-4,7
COc1ccc(C(=O)CSc2nnc(-c3ccco3)n2CC2CCCO2)cc1 (stereo not drawn),-4,-2.5%,-4.0,-5,45µM*,1,-4
Cn1c(CC(=O)Nc2ccccc2)nnc1SCC(=O)NC1CCCC1,-1,2.9%,-4.0,-5,22%,1,2
CN(Cc1ccccc1)C(=O)COC(=O)c1ccc2c(c1)OCO2,-20,0.7%,-3.7,-8,-2%,10,3
COc1cc(C(=O)N/C(=C/c2ccc(F)cc2)C(=O)NC(C(=O)O)c2ccccc2)cc(OC)c1OC (stereo not drawn),7,0.7%,-4.9,-10,4%,/,-11
CCN1CCN(CC(=O)Nc2ccc(C)c(Br)c2)CC1,11,-0.2%,-6.1,-8,?,/,0
COc1ccc(C(=O)NC(=S)NC(C)C)cc1Br,/,?,-0.2,-5,9%,-10,-10
COC(=O)/C=C/c1c(C)nc(NCc2ccccc2)nc1Cl,5,1.6%,-1.9,-7,0%,-5,-6
C#CCN(C[C@@H]1[C@@H](OC(=O)Nc2c(C)noc2C)[C@@H](OC(=O)Nc2c(C)noc2C)Cn2c(=O)n(CCCCCC)c(=O)n21)S(=O)(=O)c1ccc(C)cc1,/,3.1%,-8.5,-3,/,-4,-4
COc1ccc(/C=C/C(=O)OCC(=O)c2ccc3c(c2)NC(=O)CO3)c(OC)c1,/,0.6%,4.8,4,5%,11,13
COCC(C)NC(=O)Cn1c(SCc2ccccc2)nc2ccccc21 (stereo not drawn),3,-0.2%&2.7%,-4.1,-4,-8%,6,9
O=C(Nc1ccc(C(=O)N2CCN(c3ccccc3)CC2)cc1)C1=CSCCO1,-24,-1.2%,-1.1,-2,4%,-1,-2
CN1C(=O)CSc2ccc(C(=O)O)cc21,-9,1.9%,-2.4,-3,10%,5,5
COc1ccc(OC)c(-n2c(SCC(=O)N3CCc4ccccc43)nc3c(c2=O)SCC3)c1,3,2.0%,-2.5,-1,10%,1,-12
CN1CCN(C(c2ccc(C(F)(F)F)cc2)c2ccc3cccnc3c2O)CC1 (stereo not drawn),-2,3.2%,-2.4,-36,-2%,-84*,?

Reformatted field by field: entries from further up
> O=C(NC1CCCC1)C1CCCN1C(=O)Oc1ccccc1 (stereo not drawn)
  TRPV1 PAM = 10
  PINK1 modulator = -0.1%
  D2 ag = 5.8
  D2 potentiator = -9
  Sfp PPTase inh = 18%
  CtBP-E1A inh = -4
  Six1-Eya2 blk = 7

> COC(=O)/C=C/c1c(C)nc(NCc2ccccc2)nc1Cl
  TRPV1 PAM = 5
  PINK1 modulator = 1.6%
  D2 ag = -1.9
  D2 potentiator = -7
  Sfp PPTase inh = 0%
  CtBP-E1A inh = -5
  Six1-Eya2 blk = -6

> COc1ccccc1CCNC(=O)C1CCC(=O)N(Cc2ccccc2OC)C1 (stereo not drawn)
  TRPV1 PAM = -4
  PINK1 modulator = -0.1%
  D2 ag = -1.4
  D2 potentiator = -7
  Sfp PPTase inh = 12%
  CtBP-E1A inh = 6
  Six1-Eya2 blk = 8

> COc1ccc(C(=O)CSc2nnc(-c3ccco3)n2CC2CCCO2)cc1 (stereo not drawn)
  TRPV1 PAM = -4
  PINK1 modulator = -2.5%
  D2 ag = -4.0
  D2 potentiator = -5
  Sfp PPTase inh = 45µM*
  CtBP-E1A inh = 1
  Six1-Eya2 blk = -4

(continued)
SMILES,TRPV1 PAM,PINK1 modulator,D2 ag,D2 potentiator,Sfp PPTase inh,CtBP-E1A inh,Six1-Eya2 blk
OC(c1ccccn1)(c1ccccn1)c1ccccn1,14,-1.9%,0.8,-1,?,-2,-85*
CCOC(=O)c1c(C)[nH]c(C(=O)COC(=O)CCSc2ccccc2)c1C,5,1.1%,0.8,21,3%,2,0
O=C(Nc1ccc(-n2nncc2-c2ccco2)cc1)c1cc2ccccc2oc1=O,17,15%[38.3 µM],0.8,15,0%,-4,-2
COC(=O)N(C)c1nc2ccccc2s1,24,0.6%,-0.8,3,3%,2,0
CC1CCN(S(=O)(=O)N2CCC(C(=O)NCCC3=CCCCC3)CC2)CC1,-22,3.6%,-7.0,-2,17%,-2,7
O=C(Nc1cccnc1)C1CCN(S(=O)(=O)c2ccc(Cl)cc2)CC1,-2,0.7%,-6.2,-3,10%,1,-2
CC(=O)Nc1cc(C(=O)N2CCCC2)ccc1Sc1ccc(Cl)cc1,10,1.9%[38.3 µM],-0.4,7,6%,2,1
O=C(CN1C(=O)COc2ccccc21)N(Cc1cccnc1)Cc1cccc(F)c1,-2,-0.3%[38.3 µM],0.1,3,8%,-6,-2
Cc1cccc(-n2nnc3c(=O)n(CC(=O)Nc4cc(C)on4)cnc32)c1,2,2.6%,-0.1,-7,17%,9,-24
Cc1ccc2c(c1)-c1ccccc1S(=O)(=O)N2,-4,5.0%,-2.5,-16,12%,4,6
O=C(Nc1ccc(S(=O)(=O)N2CCCC2)cc1)c1ccccc1,-30,1.3%,-5.3,-22,/,-13,5
NC(=O)c1ccccc1OCC(=O)N1CCCC1c1ccc2c(c1)OCCCO2 (stereo not drawn),3,-4.8%,-3.2,-3,/,1,-2
CC(=O)NCc1ccc(S(=O)(=O)NC(C)CCc2ccccc2)cc1 (stereo not drawn),13,3.0%,4.8,-4,13%,0,1
Cc1ccc(C)c(N2CCN(C(=O)c3cc4ccccc4oc3=O)CC2)c1,/,-0.5%,0.2,0,-6%,0,-4
Nc1ccc(C(=O)NCc2ccccc2)cc1,8,-0.1%,-0.8,-1,-7%,/,10
O=C(COc1ncnc2cc([N+](=O)[O-])ccc12)NCCc1ccc(Cl)cc1,11,4.9%,15,25,8%,-18,-26
COc1ccc(CC(=O)Nc2ccc(S(=O)(=O)NCC3CCCO3)cc2)cc1 (stereo not drawn),14,/,0.9,-6,?,10,1
Fc1ccc(Nc2ccnc(C(F)(F)F)c2)cc1,-10,-1.2%,0.1,-1,22%,0,-2
COc1cccc(SCc2noc(C(=O)NC(C)C)c2C(=O)NC(C)C)c1,-24,1.7%,-0.6,-2,/,5,4
COc1ccc(Oc2nc(-c3cccnc3)nc3ccccc23)cc1,-1,5.0%,-3.1,-10,?,2,0

Next records follow.
SMILES,TRPV1 PAM,PINK1 modulator,D2 ag,D2 potentiator,Sfp PPTase inh,CtBP-E1A inh,Six1-Eya2 blk
CC(=O)Nc1cc(-c2ccc(C(=O)N3CCOCC3)cc2)cn2c(-c3cccc(C(C)=O)c3)cnc12,/,0.6%,5.9,-2,/,-4,-3
Cc1cccc(OCC(=O)NCCNC(=O)c2ccco2)c1,14,1.0%,-0.4,-7,13%,-9,1
Cc1ccc(C(=O)O)cc1NC(=O)c1cccs1,8,10%[38.3 µM],0.9,10,6%,6,7
O=c1nc2n(c3cc(Cl)c(S(=O)(=O)N4CCOCC4)cc13)CCCCC2,-2,3.7%,-0.8,-1,12%,5,0
CN1/C(=C\C=O)C(C)(C)c2ccccc21,1,2.1%,-2.9,-8,19%,5,0
O=C(CN1C(=O)NC2(CCOc3ccccc32)C1=O)c1ccc(Cl)cc1 (stereo not drawn),?,3.0%,3.9,3,/,5,-1
CC(C)C(=O)Nc1ccc(C(=O)NC2CCSC2=O)cc1 (stereo not drawn),9,3.1%[38.3 µM],-1.7,9,2%,-2,2
Cc1cccc(C)c1NC(=O)CN(C)C(=O)CC1Sc2ccccc2NC1=O (stereo not drawn),12,-1.7%,0.0,-3,/,7,6
COc1ccc(C(=O)NCCCOc2cccc(NC(C)=O)c2)cc1,6,-1.3%,-8.6,-6,4%,7,7
CC(C)CNC(=O)c1[nH]c(C(F)(F)F)nc1-c1ccccc1,/,9.9%,6.6,-2,/,12,6
S=C(N/N=C/c1ccc(Cl)cc1)N1CCOCC1,-7,1.5%,-2.7,-16,-1%,-28,-20
C=CCn1c(SCC(=O)NC2CCCCC2)nc2ccccc2c1=O,?,4.0%,-1.7,0,14%,6,1
CC1CCN(C(=O)CSc2nnc(Cc3cc(=O)[nH]c(=O)[nH]3)n2-c2ccc(Cl)cc2)CC1,-6,0.3%&0.7%,-1.0,-2,-22%,7,3
CCc1ccc(NC(=O)c2ccc(NC3=NC4CS(=O)(=O)CC4S3)cc2)cc1 (stereo not drawn),-13,-1.5%,-5.5,-8,6%,5,-1
O=C(NNC(=O)c1cccc([N+](=O)[O-])c1)c1ccncc1,-4,-0.4%,-2.2,-6,1%,-14,14
CC(C)COC(=O)N(C)C[C@H]1OCc2cnnn2CCCC(=O)N([C@H](C)CO)C[C@H]1C,/,3.0%,-2.2,3,/,4,12
CC(C)(C)n1cnc2cc(NS(=O)(=O)c3ccccc3)ccc21,-3,-4.0%,0.4,-6,3%,-16,-2
CCn1cc(C(=O)N[C@H](C(=O)NC(C)(C)CO)C(C)C)c(=O)c2cc3c(cc21)OCO3,-6,-0.4%,-0.2,-1,3%,5,4
Cc1c(C)c(C)c2[nH]c(=S)[nH]c2c1C,6,-2.5%,-2.2,-2,8%,-14,-12
C=C(C)C1CC=C(C)/C(=N/NC(=O)COc2ccc(Cl)cc2)C1 (stereo not drawn),0,11%,-3.3,-14,6%,-9,1
CCCOc1ccc(/C=C/c2c([N+](=O)[O-])c(=O)n(C)c(=O)n2C)cc1,20,1.8%,-7.1,-3,4%,0,-7
Cn1cc(CC(=O)N2CCN(c3ccc(Cl)cc3)CC2)c2ccccc21,5,-1.6%,-2.6,-13,-4%,-21,-25

High-throughput results: PubChem, National Center for Advancing Translational Sciences (NCATS)

An unsorted share of the library; any-hit rate near 3.7%.
